Bioassay records: PubChem, National Center for Advancing Translational Sciences (NCATS)
MARV entry inh – inhibitors of Marburg virus binding or cell entry. Marburg virus pseudotyped entry inhibition, cell reporter; control for the full effect not named in the record; about a third of the inactives were read at about 46 µM. Potency, µM (top dose mostly 37.8 µM), inactives show top-dose activity change, negative = inhibition, most hits filed as inhibitors. actives 1.8% (n = 300,000); active = well fitted inhibition curve with a large enough effect; inconclusive = small, poorly fitted or top-dose-only effect, or effect the other way; inactive = flat fitted curve, though single readings scatter; tested in HEK293 cells; about a fifth of its hits are not listed in these tables; further: on the % scale 0 is the no-effect control and ±100 the full control effect; luciferase read-out
Lassa entry inh – inhibitors of Lassa virus binding or cell entry; Lassa virus pseudotype entry inhibition, cell reporter; control for the full effect not named in the record; Potency, µM (series often up to 37.9 µM), without a hit: top-dose activity change, negative = inhibition, most hits filed as inhibitors; actives 1.2% (n = 300,000); AID 540256; active means well fitted inhibition curve with a large enough effect; inconclusive means small, poorly fitted or top-dose-only effect, or effect the other way; inactive means flat fitted curve, though single readings scatter; tested in HEK293 cells; further: on the % scale 0 is the no-effect control and ±100 the full control effect; nearly all actives have a fitted effect of over 50% in size; luciferase read-out
SARS PLP yeast – blocks SARS-CoV papain-like protease in a yeast assay | AID 485353 | actives 0.19% (n = 330,000) | Potency, µM (titrated, usually from 32.9 µM), for the others: top-dose activity, positive = growth rescue | S. cerevisiae expressing SARS-CoV PLpro, growth rescue; control for the full effect not named in the record; active means well fitted rising curve with a large enough effect; inconclusive means small, poorly fitted or top-dose-only effect; inactive means no such curve, though single readings can be large or run the other way; further: 0% is about no effect; nearly all actives have a fitted effect of over 55% in size; growth read by luminescence after 48 h
Cruzain Triton – inhibitors of Trypanosoma cruzi cruzain with detergent; P25779; purified cruzain, Z-FR-AMC fluorescence, 0.01% Triton; Potency, µM, for inactives: max response, negative = inhibition, usual class: inhibitors; actives 0.43% (n = 200,000); AID 1478;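 further: plate controls were neutral wells for no effect and buffer without enzyme for full effect; nearly all actives have a fitted effect of over 40% in size; top concentration of the series not given in the record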
Target sequence (P25779 123-467 limits assumed): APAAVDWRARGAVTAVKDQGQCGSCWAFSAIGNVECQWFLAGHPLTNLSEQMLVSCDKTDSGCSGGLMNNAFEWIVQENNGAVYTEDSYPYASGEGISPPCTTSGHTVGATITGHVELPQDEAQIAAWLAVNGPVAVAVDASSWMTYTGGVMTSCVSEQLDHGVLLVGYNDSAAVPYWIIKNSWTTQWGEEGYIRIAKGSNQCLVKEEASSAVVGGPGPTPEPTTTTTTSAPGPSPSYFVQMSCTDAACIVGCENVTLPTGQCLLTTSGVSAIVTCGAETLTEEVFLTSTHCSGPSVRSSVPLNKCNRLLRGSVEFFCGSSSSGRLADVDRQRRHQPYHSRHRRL
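15 min RT preincubation of 1.5 nM cruzain with compound, then 2 uM Z-FR-AMC added; kinetic AMC fluorescence, 60 s delta. Triton X-100 0.01%, pH 5.5.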
RE007 growth inh – less growth of the S. pombe RE007 Vpr strain | S. pombe RE007 Vpr strain, BacTiter-Glo ATP luminescence, 24 h; control for the full effect not named in the record | Potency, µM (titrated, usually from 92.2 µM), inactives show top-dose activity change, negative = less growth | actives 0.21% (n = 360,000); active = well fitted falling curve with a large enough effect; inconclusive = small, poorly fitted or top-dose-only effect; inactive = no such curve, though single readings can be large or run the other way;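 further: on the % scale 0 is the no-effect control and ±100 the full control effect; nearly all actives have a fitted effect of over 50% in size; the assay follows cell death caused by Vpr and the record does not say whether a fall means rescue or toxicity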
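Fission yeast RE007 carrying one integrated HIV-1 vpr copy, seeded at OD 0.01 in PMG+AL medium with 23 nL pinned compound. Grown 24 h at 30 degrees; viability read by BacTiter-Glo luminescence after 5 min.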
Cruzain inh noDet – cruzain (T. cruzi) inhibition without detergent. P25779. purified cruzain, Z-FR-AMC fluorescence, no detergent. Potency, µM, without a hit: max response, negative = inhibition, hits mostly inhibitors. actives 2.3% (n = 200,000). AID 1476;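 further: plate controls were enzyme without inhibitor for no effect and buffer without enzyme for full effect; nearly all actives have a fitted effect of over 40% in size; top concentration of the series not given in the record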
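Detergent-free condition (0.00005% Triton X-100) in acetate buffer pH 5.5 with DTT. 1.5 nM enzyme and compound were pre-mixed 15 min, then 2 uM Z-FR-AMC substrate added; reaction progress from fluorescence change between first and third reads (60 s).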
NS1 inh – influenza NS1 inhibition; S. cerevisiae slowed by influenza A NS1, growth recovery by OD600; Potency, µM (top dose mostly 46.1 µM), inactives show top-dose activity, positive = more growth; actives 0.4% (n = 270,000); AID 2326; active means well fitted rising curve with a large enough effect; inconclusive means small, poorly fitted or top-dose-only effect; inactive means no such curve, though single readings can be large or run the other way; further: nearly all actives have a fitted effect of over 50% in size
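Read-out: OD600 growth recovery of NS1-expressing budding yeast. Cells grown overnight at 30C in -URA glucose medium, washed, resuspended and diluted 1:100 in 2% galactose assay medium, pH 6.0. Same strain lacking NS1 served as positive control.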
2A StopGo – FMDV 2A StopGo reporter, luciferase signal. human cells with a luciferase reporter of 2A StopGo recoding; control for the full effect not named in the record. Potency, µM (top dose mostly 57.9 µM), without a hit: at the top dose signal change, negative = less light. actives 1.2% (n = 410,000). AID 1159524; active = well fitted falling curve with a large enough effect; inconclusive = small, poorly fitted or top-dose-only effect; inactive = no such curve, though single readings can be large or run the other way; tested in HEK293T cells; further: on the % scale 0 is the no-effect control and ±100 the full control effect; nearly all actives have a fitted effect of over 45% in size; luciferase light after 4 h
The depositor's hits bear a star; ? = inconclusive; · = no result given; & = joins results of further samples; [ ] = dose if it differs, or a comment. Unless noted, the call rests on the fitted dose curve; in most records, active means well fitted curve in the direction sought with a large enough effect; inconclusive means small, poorly fitted or top-dose-only effect, or another doubt; inactive means no such curve, though single readings can be large; an effect the other way counts as inactive or inconclusive. Potency means the concentration at half of the fitted maximal effect.

SMILES	MARV entry inh	Lassa entry inh	SARS PLP yeast	Cruzain Triton	RE007 growth inh	Cruzain inh noDet	NS1 inh	2A StopGo
Cc1cc(C)nc(N2CCC(C(=O)NCCc3ccc(F)cc3)CC2)n1	?	2%	-7%	6.0%	-4%	3%	-10%	-18%
CCC1CCCCN1C(=O)CSc1nnc(-c2ccc(Cl)s2)o1 (stereo not drawn)	?	1%	-4%	-1.0%	-25%	-10%	-22%	8%
COCCCNC(=O)c1cc(S(=O)(=O)NCCCN2CCCC2=O)ccc1Cl	?	16%	-7%	·	-13%	·	·	-13%
CS(=O)(=O)N1CCC(C(=O)N2CCN(c3ccccc3)CC2)CC1	10%[46.1 µM]	-17%[46.1 µM]	-6%	·	-4%	·	·	-12%
O=S(=O)(Nc1ccc(F)cc1)c1ccc(S(=O)(=O)N2CCOCC2)cc1	2%	-5%	4%	·	-11%	·	·	13%
Cc1ccc2cc(CN(CC3CCCO3)S(=O)(=O)c3ccccc3)c3nnnn3c2c1 (stereo not drawn)	?	-6%	16%	-5.7%	10%	?	10%	51%[activator]
Cc1cc(C)nc(NS(=O)(=O)c2ccc(N3Cc4ccccc4C3=O)cc2)n1	5%	19%	2%	-3.1%	-7%	-3%	15%	49%[activator]
Cc1ccc(C)c(N2CCN(C(=O)c3cc4c(=O)n(Cc5cccnc5)ccc4nc3C)CC2)c1	·	-19%[46.1 µM]	·	-12%	·	?	·	-4%
CC1CCN(CC(O)COc2ccc(F)cc2)CC1 (stereo not drawn)	·	·	0%	1.5%	-1%	0%	-5%	-10%
O=C(NCc1ccccn1)C1CCN(S(=O)(=O)c2ccccc2)CC1	2%	-8%	3%	8.4%	1%	4%	8%	-14%
O=C(CC1SC(=Nc2ccc(OC(F)F)cc2)N(CCN2CCOCC2)C1=O)Nc1ccc(F)cc1F (stereo not drawn)	?	?	1%	·	-17%	·	·	-13%
CCn1cc(C(=O)NCc2ccco2)c(=O)c2cc(S(=O)(=O)N3CCC(C)CC3)ccc21	?	-24%	-3%	-3.4%	13%	?	20%	6%
COc1ccc(CNC(=O)COC(=O)c2c[nH]c(=O)[nH]c2=O)cc1OC	3%	12%	2%	-0.8%	6%	3%	8%	-17%
COc1ccc(CCNC(=O)CCc2cn(Cc3ccc(C)cc3)c3ccccc23)cc1OC	·	5%[46.1 µM]	·	-7.1%	·	?	·	-18%
COc1ccc(C(CNC(=O)c2ccc3c(c2)C(=O)N(CCC(C)C)C3=O)N2CCOCC2)cc1 (stereo not drawn)	-1%&-1%	1%	-11%	-0.3%	12%	?	-47%	-11%
C[C@@H]1CC=C[C@H]2[C@H]1C(=O)N(Cc1ccccc1)[C@H]2c1ccc(F)c(/C=C/c2ccccc2)c1	·	·	1%	·	-3%	·	?	0%
O=C(Nc1nc(-c2ccccc2)nc2ccccc12)c1ccc(F)cc1	?	?	-1%	·	-3%	·	·	-18%
CC1CCc2c(sc(NC(=O)CCC(=O)O)c2C(=O)NC2CC2)C1 (stereo not drawn)	24%[46.1 µM]	-2%[46.1 µM]	-2%	·	-3%	·	2%	5%
O=C(CCN1C(=O)c2ccccc2Sc2ncccc21)Nc1ccc(F)cc1F	·	5%[46.1 µM]	·	-0.9%	·	4%	·	1%
O=C(Nc1ccccc1C(=O)O)c1ccc2c(c1)C(=O)N(c1cccc([N+](=O)[O-])c1)C2=O	4%[46.1 µM]	3%[46.1 µM]	0%	·	4%	·	-1%	-2%
CCOC(=O)c1c(NC(=O)C(=O)N/N=C/c2ccccc2O)sc2c1CCCCC2	?	-2%	?	1.9%	14%	7.9µM*	-6%	-2%
Cc1noc(NS(=O)(=O)c2ccc(N/C=C\C(=O)c3ccc(F)cc3)cc2)c1C	-5%[46.1 µM]	18%	0%	·	-4%	·	-40%	10%
C=CCn1c(SCC)nc(O)cc1=O	5%	7%	-6%	-4.4%	-14%	-4%	?	·
CCCn1c2ccccc2c2cnn(CC(=O)NCCN(C)C)c(=O)c21	·	·	0%	·	-4%	·	1%	-22%
Cc1cc(=O)c2c(O)c(O)ccc2o1	?	-7%	4%	0.1%	-13%	-3%	-4%	9%
Cc1cc(C=C2C(=O)NC(=O)NC2=O)c(C)n1-c1ccncc1	7%[46.1 µM]	·	3%	·	10%	·	·	-10%
COc1ccccc1NC(=S)NC(=O)c1ccc(-c2ccc(Cl)cc2)o1	-15%	-22%	1%	-2.9%	0%	?	8%	·
OCCN1CCN(CC(O)C(F)(F)F)CC1 (stereo not drawn)	·	·	1%	·	2%	·	6%	-1%
CCN(CC)Cc1c(C(=O)N/N=C/c2cccc(OCc3ccc(F)cc3)c2)nnn1-c1nonc1N	-3%[46.1 µM]	10%[46.1 µM]	-6%	·	4%	·	-12%	-2%
COc1cc(CC(NC(C)=O)C(=O)NC2CCN(S(=O)(=O)c3ccc(NC(C)=O)cc3)CC2)cc(OC)c1 (stereo not drawn)	11%[46.1 µM]	·	-1%	·	-3%	·	-1%	0%
O=C(N/N=C/c1cccc(F)c1)NC1CCCCC1	2%	·	-1%	2.3%	6%	2%	-10%	17%
CCC1(c2ccccc2)NC(=O)N(CC(=O)Nc2cc(Cl)ccc2N2CCOCC2)C1=O (stereo not drawn)	?	-4%	4%	·	0%	·	·	-11%
O=C(NC1CCCCC1)c1sc(N2CCOCC2)nc1-c1ccccc1	20%	6%	4%	0.1%	5%	7%	23%	-5%
COc1ccccc1NC(=O)CSc1nc2ccccc2cc1Cc1ccccc1	?	20%	3%	0.6%	-11%	20µM*	?	·
CC(NC(=O)c1cccc(S(=O)(=O)N2CCc3ccccc3C2)c1)c1ccco1 (stereo not drawn)	-29%	?	29%	·	10%	·	·	21%
Cc1ccc(CCN2C(=O)CCC2(C)C(=O)NCc2cccnc2)cc1 (stereo not drawn)	4%	13%	6%	0.8%	15%	-5%	11%	10%
COc1cccc(-n2nc(-c3ccnn3-c3ccccc3)c(=O)n(C)c2=O)c1	?	2%	7%	-2.8%	-3%	1%	-4%	-15%
Nc1nnc(SCC(=O)Nc2ccc(N3CCOCC3)c(Cl)c2)s1	-7%	28%	1%	·	6%	·	11%	0%
COc1cc(C=O)cc(Cl)c1OC(=O)N1CCOCC1	1%[46.1 µM]	11%[46.1 µM]	1%	·	-7%	·	2%	1%
Oc1ccc(NC(=S)N=Nc2c(O)[nH]c3ccc(Br)cc23)cc1	?	11µM*	1%	·	-6%	·	·	-19%
Cc1ccc(-n2c(C3CC3c3ccc(Cl)cc3)n[nH]c2=S)cc1 (stereo not drawn)	3%	-7%	?	-8.5%	-3%	-2%	18%	0%
O=C(COc1ccc(S(=O)(=O)N2CCCC2)cc1)Nc1ccc2c(c1)OCCO2	?	?	1%	·	-16%	·	-8%	17%
COc1ccc(S(=O)(=O)Nc2cccc(N(C)S(C)(=O)=O)c2)cc1C	-26%	-16%	4%	-3.3%	1%	-10%	-6%	-5%
CCOc1nc(Nc2ccc(OC)c(Cl)c2)nc(N2CCN(c3ccc(OC)cc3)CC2)n1	?	?	17%	4.5%	-18%	?	6%	0%
COc1ccc(N(CC(=O)Nc2cc(OC)ccc2OC)S(C)(=O)=O)cc1	6%	3%	-7%	3.4%	-11%	22%	6%	-12%
COc1ccccc1CNS(=O)(=O)c1c(C(=O)N2CCCC2)c(C)n(C)c1C	·	·	-2%	·	-8%	·	-2%	8%
CC1=CC(=O)C=C(C)C1=NOc1ccccc1[N+](=O)[O-]	?	?	-15%	-1.4%	-11%	?	7%	-3%
COc1ccc(-c2nnc(SCC(=O)Nc3cc(C)on3)o2)cc1	15%[46.1 µM]	?	-1%	·	30%	·	·	-10%
COc1cc(OC)cc(C(=O)NCc2nc(-c3ccccc3)no2)c1	18%	?	-2%	-6.5%	0%	-5%	-21%	·
N/C(=N\S(=O)(=O)c1cc(C(F)(F)F)cc(C(F)(F)F)c1)c1ccc(Cl)cc1	·	·	-5%	·	?	·	-30%	-4%
O=C(CSc1nc(-c2ccco2)cc(C(F)(F)F)n1)Nc1ccc2c(c1)CCC2	?	-28%	2%	-3.0%	-5%	-10%	-6%	-12%
O=C(Nc1cccnc1)c1cc(F)cc(F)c1	?	16%	-5%	-1.1%	6%	-1%	-9%	-19%
COc1cc(O)c(C(CCN2CCOCC2)c2cc(OC)c(OC)c(OC)c2)c(OC)c1 (stereo not drawn)	·	·	2%	·	0%	·	1%	-6%
C/C=C/C(=O)OCC(=O)Nc1cc(OC)c([N+](=O)[O-])cc1C	4%[46.1 µM]	6%	-1%	·	-10%	·	·	-19%
Cc1c(Cc2ccccc2)c(=O)oc2cc(OCC(=O)c3ccccc3)ccc12	?	1%	20%	-5.2%	3%	-24%	-3%	-7%
COc1cccc2c1Oc1ncccc1N(C(=O)CCC(=O)NCc1ccc(F)cc1)C2	·	·	-2%	·	-8%	·	4%	-4%
CCn1cc(C(=O)N2CCOCC2)c(=O)c2cc(S(=O)(=O)N(C)C)ccc21	1%	·	7%	2.1%	4%	-10%	4%	-6%
C/C(=N\NC(=O)c1ccc(Cn2cc([N+](=O)[O-])cn2)o1)c1cccc(NC(=O)C(C)C)c1	16%	0%	3%	-3.0%	-16%	-1%	5%	1%
O=C(NC(CSSCC(NC(=O)c1ccccc1)C(=O)O)C(=O)O)c1ccccc1 (stereo not drawn)	·	·	1%	·	10%	·	5%	-16%
COc1ccc(NC(=O)CN(C)C(=O)CNC(=O)c2ccc3ccccc3c2)cc1	12%	-1%	-2%	·	-4%	·	·	29%
COc1ccccc1OCC(=O)NNC(=O)Nc1ccc(Cl)cc1	?	?	0%	·	-9%	·	·	-12%
N=C(N)SCC1=CCS(=O)(=O)C1	·	·	1%	·	11%	·	2%	-3%

Compounds were not picked by outcome; any-hit rate near 4.7%.
